Screens deposited in PubChem BioAssay by National Center for Advancing Translational Sciences (NCATS).
ClpP mod: qHTS Assay for Activators of ClpP; purified B. subtilis ClpP, FRET peptide cleavage, 20 min; Potency, µM (doses to about 57.5 µM), for the others: at the top dose activity change, negative = active; 340,000 tested, 1.9% active; active = well fitted falling curve with a large enough effect; inconclusive = small, poorly fitted or top-dose-only effect; inactive = no such curve, though single readings can be large or run the other way; note: potency is the fitted concentration of half-maximal effect; the source files actives as falling curves though it sought activators and does not explain the sign; nearly all actives have a fitted effect of over 65% in size; many hits overshoot -100%
Target sequence (P80244 whole entry, looked up): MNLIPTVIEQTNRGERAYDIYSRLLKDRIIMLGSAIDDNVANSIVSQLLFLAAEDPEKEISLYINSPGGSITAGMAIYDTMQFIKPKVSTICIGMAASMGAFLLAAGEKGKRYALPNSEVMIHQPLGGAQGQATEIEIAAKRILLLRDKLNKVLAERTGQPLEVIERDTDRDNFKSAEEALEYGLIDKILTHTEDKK
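FRET quenching reversal measured ClpP activation: 10 microg/mL B. subtilis ClpP at pH 8 with the FRET-FV decapeptide, read at 430 nm after 320 nm excitation. The 20-min minus 0-min signal was scaled between DMSO/no-enzyme wells and ADEP (5.8 microM final).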
PINK1 expr mod: modulators of PINK1 expression; PINK1 immunofluorescence, high-content cytometry, 24 h; Potency, µM (series often up to 76.6 µM), without a hit: at the highest dose activation (PINK1 increase), usual class: activators; 410,000 tested, 0.2% active; AID 624263; active = well fitted activation curve with a large enough effect; inconclusive = small, poorly fitted or top-dose-only effect; inactive = flat fitted curve, though single readings scatter; cell line not stated here;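 note: potency is the fitted concentration of half-maximal effect; % of control where 0% means no effect; nearly all actives have a fitted effect of over 65% in size; a mitochondrial uncoupler was the plate control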
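Decision-based qHTS: stable cells, 24 h exposure to five compound concentrations, CCCP as control. Fixed cells stained for PINK1 plus nuclear, mitochondrial and cell markers, cytometer read.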
Sfp PPTase inh: blocks B. subtilis Sfp PPTase activity | Biochemical Sfp PPTase activity, qHTS | Potency, µM, for inactives: max response, negative = inhibition, hits mostly inhibitors | 310,000 tested, 3.5% active; active = well fitted inhibition curve with a large enough effect; inconclusive = small, poorly fitted or top-dose-only effect, or another doubt; inactive = no such curve, though single readings can be large or run the other way;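 note: the enzyme is Sfp with the accession as filed and its product quenches rhodamine fluorescence; potency is the fitted concentration of half-maximal effect; 0% = enzyme reaction without inhibitor and -100% = no enzyme wells; top concentration of the series not given in the record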
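Step 1, compound plus 15 nM Sfp-PPTase, 15 min, room temperature. Step 2, add rhodamine-CoA (5 uM) and BHQ-2-YbbR (12.5 uM). Step 3, read 525/598 nm fluorescence at 0 and 30 min.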
D2 agonist: activates the human D2 dopamine receptor; P14416; 360,000 tested, 0.084% active; activation, % (no concentration beside the values); DiscoveRx PathHunter D2 beta-arrestin, luminescence, 90 min; 100% = 57 uM dopamine signal; in the data active = activation above about 40%; inconclusive = about 15% to 40%; inactive = below about 15%; note: compound concentration not given in the record; the text of the record calls up to 30% inactive
Target sequence (P14416 whole entry, looked up): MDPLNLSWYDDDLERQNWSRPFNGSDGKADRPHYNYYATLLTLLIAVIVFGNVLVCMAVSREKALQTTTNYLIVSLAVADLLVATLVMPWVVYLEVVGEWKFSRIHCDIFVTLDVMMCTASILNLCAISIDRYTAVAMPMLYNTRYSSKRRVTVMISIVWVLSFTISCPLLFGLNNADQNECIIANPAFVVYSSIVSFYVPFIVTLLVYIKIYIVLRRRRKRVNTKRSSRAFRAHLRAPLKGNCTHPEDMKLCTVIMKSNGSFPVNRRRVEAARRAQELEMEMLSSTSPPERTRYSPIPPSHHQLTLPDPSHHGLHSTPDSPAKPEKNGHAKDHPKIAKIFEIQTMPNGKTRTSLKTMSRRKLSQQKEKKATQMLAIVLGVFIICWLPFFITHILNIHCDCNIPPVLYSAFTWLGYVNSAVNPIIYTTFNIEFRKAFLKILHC
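DiscoveRx PathHunter D2 beta-arrestin cells (2,100/well) attached overnight, then compound-stimulated 90 min at 37 C in HBSS/10 mM HEPES/0.1% Tween-20 buffer; beta-galactosidase complementation read by luminescence after 1 h at ambient temperature. Dopamine 57 uM final (EC100) as control.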
Menin MLL FP FL: displaces fluorescein MLL peptide from human menin. 290,000 tested, under 10 active. FP activity change, % at 61.4 µM. AID 1766. Fluorescence polarization, fluorescein-MLL peptide displacement from menin; inconclusive = falling polarisation curve, or a change in total fluorescence; inactive = total fluorescence flat and polarisation flat or rising; no compound was filed as active; the % refers to the polarisation; negative = inhibition;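 note: % of control where 0% means no effect; inhibitors lower the polarisation; unlabelled MLL peptide was the positive control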
gsp agonist: activates gsp, the McCune-Albright syndrome mutation | gsp mutant cells, cAMP HTRF, 30 min; control for the full effect not named in the record | Potency, µM (series often up to 76.9 µM), for the others: at the highest dose activation (cAMP increase), hits mostly activators | 340,000 tested, 0.13% active; active = well fitted activation curve with a large enough effect; inconclusive = small, poorly fitted or top-dose-only effect, or another doubt; inactive = no such curve, though single readings can be large or run the other way; cell line not stated here;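 note: phosphodiesterase inhibitor Ro 20-1724 added with compounds to block cAMP breakdown; potency is the fitted concentration of half-maximal effect; nearly all actives have a fitted effect of over 60% in size; about a fifth of the inactives were tested at one dose only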
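Cells in DMEM/10% FBS with G418 were pretreated with compounds in DMSO plus […] (300 uM stock) for 30 min at 37C. cAMP was measured by HTRF (cAMP-d2 plus anti-cAMP antibody-K) after 30 min at room temperature.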
gsp antagonist: gsp mutant antagonism; gsp-mutant cells, cAMP HTRF, 30 min; control for the full effect not named in the record; Potency, µM (top dose mostly 76.9 µM), inactives show top-dose activity change, negative = inhibition, hits mostly inhibitors; 340,000 tested, 0.4% active; AID 624288; active = falling curve of any shape with a large fitted effect; inconclusive = falling curve, mostly with a smaller effect; inactive = flat or rising curve; cell line not stated here;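 note: intracellular cAMP measured with PDE inhibitor Ro 20-1724 present during compound exposure; potency is the fitted concentration of half-maximal effect; % is set by controls: 0 for no effect and ±100 for the full control effect; nearly all actives have a fitted effect of over 65% in size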
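HTRF cAMP read-out (cAMP-d2 plus anti-cAMP antibody-K in lysis buffer, 30 min RT). Before lysis, cells are exposed to compounds with […] for 30 min at 37C in DPBS containing Ca/Mg, BSA and Tween 20.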
Starred values were filed as active, the others as inactive; & = joins results of further samples; [ ] = remark or other dose.

`CC(=O)c1ccc(NC(=O)c2cccc(NC(=O)c3ccccc3)c2)cc1` gave ClpP mod 0.6%, PINK1 expr mod 3.3%, Sfp PPTase inh -5%, D2 agonist 1.7, Menin MLL FP FL -0.4, gsp agonist 3%[15.4 µM] and gsp antagonist -8%.
For O=S(NCc1ccco1)C12CC3CC(CC(C3)C1)C2 (stereo unspecified) the results were ClpP mod -1.4%, PINK1 expr mod -4.0%[38.3 µM], Sfp PPTase inh -29%, D2 agonist -1.7, Menin MLL FP FL -2.1, gsp agonist inconclusive and gsp antagonist 8%.
Cc1ccnc(NC(=O)CCc2c[nH]c3ccccc23)c1 was read as ClpP mod -3.1%, PINK1 expr mod -0.2%, Sfp PPTase inh 6%, D2 agonist 0.5, gsp agonist -14% and gsp antagonist -8%.
For CCc1ccc(NS(=O)(=O)c2cc(OC)ccc2OC)cc1 the results were ClpP mod 0.0%, Sfp PPTase inh 8%, D2 agonist -3.9, Menin MLL FP FL 2.9, gsp agonist 1% and gsp antagonist -13%.
C[C@@H]1CCCCO[C@H](CN(C)C(=O)C2CCCCC2)[C@@H](C)CN([C@H](C)CO)C(=O)c2cc(N(C)C)ccc2O1 was read as ClpP mod -2.5%, PINK1 expr mod -0.5%, D2 agonist -2.5 and gsp agonist inconclusive.
For O=C(CNC(=S)N(Cc1ccccc1)Cc1cccnc1)N1CCOCC1 the results were ClpP mod -3.1%, PINK1 expr mod 1.2%, Sfp PPTase inh 8%, D2 agonist -3.1, Menin MLL FP FL 3.5, gsp agonist 5%[15.4 µM] and gsp antagonist 8%.
Screening CC(=O)NS(=O)(=O)c1ccc(NC(=O)CSc2ccc(Cl)cc2)cc1 returned PINK1 expr mod 1.2%, Sfp PPTase inh 10%, D2 agonist -4.4, Menin MLL FP FL -0.5, gsp agonist 29% and gsp antagonist 3%.
`Cc1cccc(C)c1NC(=S)NCCCN1CCCC1=O` gave ClpP mod -2.6%, PINK1 expr mod -0.2%, Sfp PPTase inh inconclusive, D2 agonist -1.0, Menin MLL FP FL -14, gsp agonist 3% and gsp antagonist 12%.
Screening Cc1cccc(/N=C2/NC(=O)C(Cc3ccccc3)S2)n1 (stereo unspecified) returned ClpP mod -5.3%, PINK1 expr mod 3.7%, Sfp PPTase inh 13%, D2 agonist -3.1, Menin MLL FP FL 5.5, gsp agonist inconclusive and gsp antagonist 4%.
`O=C(NCc1ccccc1)c1sc(=S)n2c1[nH]c(=O)c1ccccc12` gave ClpP mod 1.1%, PINK1 expr mod 19%, Sfp PPTase inh 8%, D2 agonist -1.2, Menin MLL FP FL 1.3, gsp agonist -8% and gsp antagonist -14%.
`Cc1ccc(S(=O)(=O)N2CCOCC2)cc1C(=O)Nc1nc(-c2ccccn2)cs1` gave ClpP mod -0.8%, PINK1 expr mod 0.5%, D2 agonist 0.9, gsp agonist inconclusive and gsp antagonist 1%.
CCC(=O)[C@@]1(C)[C@H](C)C[C@H]2[C@@H]3CCC4=CC(=O)C=C[C@]4(C)[C@H]3[C@@H](O)C[C@@]21C was read as ClpP mod 0.8%, PINK1 expr mod 2.9%, D2 agonist 6.0 and gsp antagonist -7%.
For CN(NS(=O)(=O)c1ccccc1)C(=O)c1ccccc1 the results were PINK1 expr mod 0.2%, D2 agonist -1.5, gsp agonist inconclusive and gsp antagonist 6%.
For C=CCNc1nc(Nc2cc(Cl)ccc2OC)nc(OC)n1 the results were PINK1 expr mod 8.0%, Sfp PPTase inh 15%, D2 agonist 5.7, Menin MLL FP FL -1.7, gsp agonist -29% and gsp antagonist -13%.
`CCCNC(=O)c1ccccc1NC(=O)CSCc1ccc(OC)cc1` gave ClpP mod -1.2%, PINK1 expr mod 2.0%[38.3 µM], Sfp PPTase inh 6%, D2 agonist -3.7, Menin MLL FP FL 0.1, gsp agonist -40%[inhibitor] and gsp antagonist 12%.
CCOC(=O)c1[nH]c2c(c1C)C(=O)CC(c1ccc(F)cc1)C2 (stereo unspecified) was read as ClpP mod 1.3%, PINK1 expr mod 12%, Sfp PPTase inh 6%, D2 agonist 0.8, Menin MLL FP FL 0.1, gsp agonist -46%[inhibitor] and gsp antagonist 25%.
`Cc1noc(NS(=O)(=O)c2ccc(NC(=O)c3ccc(F)cc3)cc2)c1C` gave ClpP mod 0.5%, PINK1 expr mod 0.6%, D2 agonist -1.6, gsp agonist 21% and gsp antagonist 2%.
COCCn1c(SCC(=O)NCc2ccc(F)cc2)nc2ccccc21 was read as PINK1 expr mod 2.6%, Sfp PPTase inh 3%, D2 agonist 0.2, Menin MLL FP FL -0.5, gsp agonist -56%[inhibitor] and gsp antagonist 1%.
Screening Cc1ccc(C2C(C#N)=C(N)Oc3n[nH]c(-c4ccccc4)c32)o1 (stereo unspecified) returned ClpP mod -3.1%, PINK1 expr mod 2.1%, Sfp PPTase inh inconclusive, D2 agonist 1.6, Menin MLL FP FL 1.6, gsp agonist -16% and gsp antagonist -2%.
Screening O=C(COC(=O)Cc1ccsc1)NCc1ccccc1 returned ClpP mod -0.9%, PINK1 expr mod 3.2%, Sfp PPTase inh 10%, D2 agonist -0.5, Menin MLL FP FL 9.2, gsp agonist 28% and gsp antagonist 8%.
`COCCn1c(SCC(=O)Nc2cc(C)on2)nc2cc(Cl)ccc2c1=O` gave ClpP mod -0.3%, PINK1 expr mod 7.0%, D2 agonist 0.8, gsp agonist 35% and gsp antagonist 3%.
S=c1[nH]ncn1/N=C/c1ccccn1 was read as ClpP mod -4.5%, PINK1 expr mod 1.4%, Sfp PPTase inh 16µM*, D2 agonist -0.3, Menin MLL FP FL 0.4, gsp agonist 1% and gsp antagonist -2%.
For O=C(Cn1cnc2ccccc21)N/N=C/c1ccccc1 the results were ClpP mod -0.5%, PINK1 expr mod 2.7%, Sfp PPTase inh 20%, D2 agonist -3.6, Menin MLL FP FL 0.7, gsp agonist -27% and gsp antagonist -5%.
O=C(CN1CCOCC1)Nc1ccccc1 was read as ClpP mod -1.0%, PINK1 expr mod -1.5%[38.3 µM], Sfp PPTase inh 13%, D2 agonist -1.0, Menin MLL FP FL 0.6, gsp agonist 16% and gsp antagonist -1%.
Screening Cc1ccc(S(=O)(=O)Cc2csc(N)n2)cc1 returned ClpP mod 0.6%, PINK1 expr mod -0.4%, Sfp PPTase inh 19%, D2 agonist -0.6, Menin MLL FP FL 3.8, gsp agonist inconclusive and gsp antagonist 10%.
`COc1ccccc1CNC(=O)CCCn1c(=O)c2ccccc2n(CC(=O)NC2CCCC2)c1=O` gave ClpP mod -3.8%, PINK1 expr mod 0.9%, Sfp PPTase inh 8%, D2 agonist -0.4, Menin MLL FP FL -3.5, gsp agonist -4% and gsp antagonist 5%.
Screening N#Cc1ccc(C(=O)OCC(=O)NC2CCCC2)cc1 returned ClpP mod -3.5%, PINK1 expr mod -0.4%, Sfp PPTase inh 17%, D2 agonist -2.9, Menin MLL FP FL -1.5, gsp agonist -2% and gsp antagonist 6%.
Screening CC1CCC(NC(=O)CNC(=O)c2ccc3ccccc3c2)CC1 (stereo unspecified) returned ClpP mod inconclusive, PINK1 expr mod inconclusive, D2 agonist -4.9, gsp agonist -12% and gsp antagonist -31%.
O=C(CCCC(=O)OCC(Cl)=C(Cl)Cl)Nc1ccc(F)cc1 was read as ClpP mod -0.5%, PINK1 expr mod 2.9%, Sfp PPTase inh 11%, D2 agonist 1.5, Menin MLL FP FL -1.0, gsp agonist -3%[15.4 µM] and gsp antagonist 0%.
Screening O=C(Cc1ccccc1)c1ccccc1C(=O)N1CCCCC1 returned ClpP mod -0.4%, PINK1 expr mod -0.1%, Sfp PPTase inh 16%, D2 agonist -3.9, Menin MLL FP FL -0.5, gsp agonist -2%[15.4 µM] and gsp antagonist 12%.
CC(=O)N1c2ccc(S(=O)(=O)N3CCCC(C(=O)Nc4cccc(Cl)c4)C3)cc2CC1C (stereo unspecified) was read as ClpP mod -1.7%, PINK1 expr mod -1.0%, Sfp PPTase inh 4%, D2 agonist -1.5, Menin MLL FP FL -1.4, gsp agonist 41% and gsp antagonist inconclusive.
Screening N#CCC(=O)Nc1ccc(C(=O)OCC(=O)NCc2ccc3c(c2)OCO3)cc1 returned ClpP mod inconclusive, PINK1 expr mod 0.1%, D2 agonist -0.1, gsp agonist -6% and gsp antagonist 12%.
For COc1ccc(-c2nc(CSCC(=O)N3CCc4ccccc43)c(C)o2)cc1OC the results were ClpP mod -5.0%, PINK1 expr mod -1.3%, Sfp PPTase inh -12%, D2 agonist -1.9, Menin MLL FP FL 3.9, gsp agonist -28% and gsp antagonist -27%.
For Cc1ccc(N(CC(=O)NC(C)c2ccccc2)S(=O)(=O)c2c(C)noc2C)cc1 (stereo unspecified) the results were ClpP mod -6.4%, PINK1 expr mod 3.6%&1.9%, Sfp PPTase inh 18%, D2 agonist -4.6, Menin MLL FP FL -0.8, gsp agonist -19% and gsp antagonist -5%.
`CCN(CC)C(=O)Cn1cnc2sc(C(=O)N3CCN(c4ccc(F)cc4)CC3)c(C)c2c1=O` gave PINK1 expr mod 2.5%, Sfp PPTase inh 16%, D2 agonist 0.9, Menin MLL FP FL 1.4, gsp agonist 11% and gsp antagonist -5%.
Screening C/C(=N\NC(=O)c1ccc(C)cc1C)c1ccc2c(c1)Nc1ccccc1S2 returned ClpP mod 5.6%, PINK1 expr mod 6.1%, Sfp PPTase inh 11%, D2 agonist inconclusive, Menin MLL FP FL 13, gsp agonist 1%[15.4 µM] and gsp antagonist -22%.
Cc1cc(OC(C)C(=O)N(Cc2ccco2)C2CCS(=O)(=O)C2)cc(C)c1Cl (stereo unspecified) was read as ClpP mod -3.5%, PINK1 expr mod -1.3%, Sfp PPTase inh -2%, D2 agonist 7.3, Menin MLL FP FL 2.0, gsp agonist -56%[inhibitor] and gsp antagonist -18%.
CC(C)[C@H](NC(=O)c1ccco1)C(=O)OCC(=O)c1ccc(Br)s1 was read as ClpP mod -0.4%, PINK1 expr mod -0.1%, D2 agonist -1.3, gsp agonist 20%[15.4 µM] and gsp antagonist -4%.
